High-throughput results as filed in PubChem.
MT1-MMP act inh: blockers of MT1-MMP proenzyme processing, primary screen, HT1080 RFP-PRO-GFP cells, GFP/RFP fluorescence; Matrix metalloproteinase-14 (Homo sapiens), P50281; GFP/RFP ratio fluorescence, overnight; percent of plate control window, DMSO zero; GFP/RFP ratio change, % at 20 µM; actives 0.061% (n = 360,000); AID 651647, 2012;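 active = GFP/RFP ratio change of at least 30% with cell ATP level not reduced by more than half and red fluorescence within 50% of control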; also: strong numbers were not always called active
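Assay system – RFP-PRO-GFP reporter HT1080 cells · Compound dosing – single dose of 20 µM compound, 1% DMSO final · Incubation – overnight compound exposure at 37 °C · Measure – GFP/RFP fluorescence ratio · Benchmarks – DMSO wells and RFP-L50D-GFP cells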
eIF4H FP inh: human eIF4H binding inhibitors, primary screen, translation initiation inhibitor project, biochemical, uHTS, fluorescence polarization; Eukaryotic translation initiation factor 4H (Homo sapiens), Q15056; eIF4H fluorescence polarization binding assay; inhibition, % at 35 µM; actives 0.94% (n = 290,000);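 active = 50% or more with normal probe brightness, or confirmed in later tests; about a fifth of its hits are not listed in these tables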;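 also: calls also rest on retests at 20 µM and on dose response follow-up; 0% = protein and probe with vehicle and 100% = probe without protein; strong numbers were not always called active; many hits fall short of the cut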
Env fusion inh: inhibitors of HIV-1 Env-driven cell-cell fusion, primary screen, HeLa-JRFL effector, CEM21 target cells, luciferase; actives 1.1% (n = 360,000); inhibition, % at 12.3 µM; AID 651610, 2012;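 active = mean replicate inhibition score of at least 50 and every replicate individually at or above 50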;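 also: 0% = plate neutral controls and 100% = maraviroc near 300 nM; one replicate is shown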
PABP FP inh: PABP poly(A) RNA binding inhibitors, primary screen, biochemical, fluorescence polarization, uHTS; Polyadenylate-binding protein 1 (Homo sapiens), P11940; inhibition, % at 35 µM; actives 1% (n = 290,000);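 active = 50% or more with normal probe brightness, or confirmed in later tests; about a fifth of its hits are not listed in these tables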;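 also: calls also rest on retests at 20 µM and on dose response follow-up; controls were probe without protein and protein plus probe with vehicle; some compounds called inactive have numbers as strong as hits; many hits fall short of the cut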
Target sequence (P11940 whole entry, looked up): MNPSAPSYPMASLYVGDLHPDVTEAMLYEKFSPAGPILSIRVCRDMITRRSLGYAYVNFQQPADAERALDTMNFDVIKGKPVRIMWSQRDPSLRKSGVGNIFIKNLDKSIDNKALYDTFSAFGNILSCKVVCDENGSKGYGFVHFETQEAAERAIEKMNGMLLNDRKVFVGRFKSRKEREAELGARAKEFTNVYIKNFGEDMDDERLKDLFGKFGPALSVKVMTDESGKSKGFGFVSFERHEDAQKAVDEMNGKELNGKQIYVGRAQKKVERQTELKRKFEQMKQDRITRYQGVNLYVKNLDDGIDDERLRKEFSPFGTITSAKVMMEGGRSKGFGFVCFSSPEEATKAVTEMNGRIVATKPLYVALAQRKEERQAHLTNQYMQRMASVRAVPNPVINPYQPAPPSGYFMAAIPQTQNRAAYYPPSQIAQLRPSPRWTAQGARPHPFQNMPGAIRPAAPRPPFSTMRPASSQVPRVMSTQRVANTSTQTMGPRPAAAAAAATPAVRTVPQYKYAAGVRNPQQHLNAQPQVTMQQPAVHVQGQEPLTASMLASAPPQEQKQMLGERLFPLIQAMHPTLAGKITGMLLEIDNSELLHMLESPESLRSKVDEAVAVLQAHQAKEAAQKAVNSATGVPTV
Rce1 inh: yeast Rce1p protease inhibitors, primary screen, biochemical, fluorescence, cell-free homogeneous; yeast membranes, quenched prenylated peptide cleavage fluorescence; calls only; actives 0.27% (n = 290,000);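 active = fall in fluorescence gain of 50% or more versus controls, with final raw signal at or below 3038400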;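 also: plate controls were neutral control wells for no effect and wells lacking membranes for full effect; tested at 10 µM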
Yeast UUG start: modulators of yeast start codon fidelity, primary screen, whole organism, S. cerevisiae, single point, plate reader | activity score, % at 18.7 µM | S. cerevisiae UUG-firefly luciferase reporter, luminescence/redox ratio | AID 602363, 2012 | actives 0.13% (n = 350,000);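 active = replicate mean at a twofold rise or more, about +100% in these data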;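 also: firefly luciferase made from a UUG start codon reports start codon fidelity; reporter light over untreated wells divided by growth signal over untreated wells; some hits fall short of that in this replicate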
CSC inhib: cancer stem cell viability inhibitors, primary screen, luminescence; cancer stem cell-like cells viability; inhibition, % at 7.5 µM; actives 1.1% (n = 300,000);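 active = mean at 75% or more and at least half the replicates too; tested in HMLE shEcad cells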;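 also: 0% = median of negative and 100% = median of positive control wells; the first replicate is given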
MT1-MMP act inh RFP: further read-out of MT1-MMP act inh, marked with its call; RFP signal change, %; measured here: RFP expression control read;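 0 = vehicle wells; hits needed this value within 50% of zero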
An asterisk follows results filed as active; i = inactive; . = not tested or not shown. A portion of the library (hit frequency here may not be typical).

SMILES	MT1-MMP act inh	MT1-MMP act inh RFP	eIF4H FP inh	Env fusion inh	PABP FP inh	Rce1 inh	Yeast UUG start	CSC inhib
O=C(NCc1cccc(Cl)c1)c1cccc2c(-c3cccnc3)coc12	0	-23	.	19	.	.	-12	.
Cn1cnc(C(=O)N2CCc3ccccc3C2)c1C(=O)N1CCc2ccccc2C1	4	3	.	-3	.	.	-4	.
COC(=O)CNC(=O)COC(=O)c1cc(SC)ccc1Cl	0	2	-8	10	3	i	.	.
N#Cc1ccccc1NC(=O)CSc1nnc(-c2ccccc2O)n1-c1ccccc1	-1	-3	4	4	4	i	-21	12
CCn1nc(C)c(C2C(C#N)=C(N)OC3=C2C(=O)CCC3)c1C (stereo not drawn)	7	6	-6	10	-1	i	.	4
CC1CN(CCCCOc2cccc(Oc3ccccc3)c2)CC(C)O1 (stereo not drawn)	2	0	-3	20	4	i	.	195*
O=C(O/N=C1\CCS(=O)(=O)c2sccc21)c1c(F)cccc1F	-1	4	11	-11	13	i	.	-16
C1=C2C[N+]3(CCCC3)CC2Cc2ccc3ccccc3c21 (stereo not drawn)	-6	0	-4	.	-5	i	-1	-6
O=C(Cn1c(=O)sc2ccccc21)Nc1ccc2c(c1)OCCO2	1	-4	-2	-5	-11	i	15	-11
CC(C)(Oc1ccc(Cl)cc1)C(=O)NCC(c1ccco1)N1CCCCC1 (stereo not drawn)	-3	-4	.	-72	.	i	-13	44
CC(C)NC(=O)c1ccccc1NC(=O)Cc1ccc(Cl)cc1	0	0	1	-3	2	i	-8	5
N#Cc1c(N)nc2c(c1-c1ccc3c(c1)OCO3)CCCCCC2	-10	-7	-6	.	8	i	7	-14
C[C@@H](CN=[N+]=[N-])CN1CC[C@H](O)CCC1=O	2	2	-10	.	-1	i	-26	1
O=C(c1csc2ccccc12)n1cccn1	3	0	-8	.	-4	.	-1	-10
CCS(=O)(=O)c1ccc2c(c1)N(S(=O)(=O)c1ccc(Cl)cc1)CC(C(=O)O)O2 (stereo not drawn)	1	4	-2	4	-15	i	6	0
CCCN1C(=O)C(=O)c2cc(C)ccc21	2	5	.	-18	.	.	-16	.
NC(=O)Cc1ccc(Nc2nnc(-c3ccccc3)c3ccccc23)cc1	4	3	6	0	4	i	-17	-19
S=C1NCCN1CC1CCN(CCCC2CCCC2)CC1	4	8	.	16	.	.	-8	.
O=C(O)c1cc(-n2nnnc2SCc2ccccc2F)ccc1Cl	-7	-3	1	2	5	i	.	-10
CCN(CC(=O)NC1CCS(=O)(=O)C1)c1nc(-c2cccnc2)nc2ccccc12 (stereo not drawn)	4	5	-2	.	1	i	.	-5
CCc1ccc2c(c1)cc(CN(C(=S)Nc1ccc(Cl)cc1)C1CC1)c1nnnn12	5	-3	7	-26	-7	i	.	7
CSc1nc2sc3c(c2c2nncn12)CCC3	-1	-2	-3	-19	6	i	.	0
CCOCCCNC(=O)/C(C#N)=C/c1cc(C)c(O)c(C)c1	0	-1	1	-56	7	i	.	0
O=C(Cc1ccccc1)Nc1ccc(N2CCOCC2)cc1	2	2	2	0	-2	i	.	8
CCCC12CN3CC(C)(CN(C1)C3c1cccs1)C2=O (stereo not drawn)	-2	-2	-2	11	-9	i	1	-1

A portion from the list above, as a working copy:
SMILES	MT1-MMP act inh	MT1-MMP act inh RFP	eIF4H FP inh	Env fusion inh	PABP FP inh	Rce1 inh	Yeast UUG start	CSC inhib
CC(C)NC(=O)c1ccccc1NC(=O)Cc1ccc(Cl)cc1	0	0	1	-3	2	i	-8	5
N#Cc1c(N)nc2c(c1-c1ccc3c(c1)OCO3)CCCCCC2	-10	-7	-6	.	8	i	7	-14
C[C@@H](CN=[N+]=[N-])CN1CC[C@H](O)CCC1=O	2	2	-10	.	-1	i	-26	1
O=C(c1csc2ccccc12)n1cccn1	3	0	-8	.	-4	.	-1	-10
CCS(=O)(=O)c1ccc2c(c1)N(S(=O)(=O)c1ccc(Cl)cc1)CC(C(=O)O)O2 (stereo not drawn)	1	4	-2	4	-15	i	6	0
CCCN1C(=O)C(=O)c2cc(C)ccc21	2	5	.	-18	.	.	-16	.
NC(=O)Cc1ccc(Nc2nnc(-c3ccccc3)c3ccccc23)cc1	4	3	6	0	4	i	-17	-19
S=C1NCCN1CC1CCN(CCCC2CCCC2)CC1	4	8	.	16	.	.	-8	.
O=C(O)c1cc(-n2nnnc2SCc2ccccc2F)ccc1Cl	-7	-3	1	2	5	i	.	-10
CCN(CC(=O)NC1CCS(=O)(=O)C1)c1nc(-c2cccnc2)nc2ccccc12 (stereo not drawn)	4	5	-2	.	1	i	.	-5
CCc1ccc2c(c1)cc(CN(C(=S)Nc1ccc(Cl)cc1)C1CC1)c1nnnn12	5	-3	7	-26	-7	i	.	7
CSc1nc2sc3c(c2c2nncn12)CCC3	-1	-2	-3	-19	6	i	.	0
CCOCCCNC(=O)/C(C#N)=C/c1cc(C)c(O)c(C)c1	0	-1	1	-56	7	i	.	0
O=C(Cc1ccccc1)Nc1ccc(N2CCOCC2)cc1	2	2	2	0	-2	i	.	8
CCCC12CN3CC(C)(CN(C1)C3c1cccs1)C2=O (stereo not drawn)	-2	-2	-2	11	-9	i	1	-1

Going on with the list.
SMILES	MT1-MMP act inh	MT1-MMP act inh RFP	eIF4H FP inh	Env fusion inh	PABP FP inh	Rce1 inh	Yeast UUG start	CSC inhib
CC(Cl)C(=O)NN=C(c1ccccc1)c1ccccc1 (stereo not drawn)	2	-2	2	5	3	i	-21	-10
COc1ccc2c(c1OC)C(=O)N1c3ccccc3COC21 (stereo not drawn)	4	6	-12	.	8	i	-6	.
COCCCN1CN=C(Nc2nc3ccccc3o2)NC1	1	3	-1	-24	8	i	-3	-1
CCOc1ccccc1NC(=O)c1ccc(C(=O)Nc2ccccc2OCC)nc1	2	-1	-8	11	1	i	-9	-9
CCOc1ccc(CCNc2ccc3nnc(-c4ccccc4)n3n2)cc1OCC	2	-2	-3	-47	11	i	-16	-8
Cc1cc2cc(C(c3nnnn3Cc3ccccc3)N3CCc4ccccc43)c(=O)[nH]c2cc1C (stereo not drawn)	-8	0	-4	-66	40	i	25	13
C=CCN1C(=O)/C(=C\c2ccc(C)cc2)N=C1SCC(=O)NCCC	6	7	-1	.	16	i	-15	3
O=C(CCC(=O)N1CCN(c2ccc(O)cc2)CC1)c1ccc(Br)cc1	.	.	-2	.	5	i	.	101*
c1ccc(Cn2nnc(-c3ccccc3)n2)cc1	-1	-2	0	-115	-9	i	-10	4
CC(=O)c1c(O)cc2n(c1=O)-c1ccc(Cl)cc1C2(C)C	-5	-3	-4	.	6	i	.	0
Cc1cc(C(=O)COC(=O)CC(NC(N)=O)c2ccc(Cl)cc2)c(C)n1C (stereo not drawn)	0	4	.	.	.	.	-3	-9
Cc1ccc(-n2ncc3c(=O)n(CC(=O)NC4CCCCC4)cnc32)cc1C	4	0	-3	-51	15	i	-11	1
CCCNc1nc(N)nc(-c2cc(Cl)ccc2OC)n1	-1	-1	10	.	13	.	.	-6
CCOC(=O)c1ccccc1NC(=O)/C=C/C(=O)O	-1	2	-16	-5	-2	i	-13	5
NNC(=O)C1=NOC2COC3(CCN(c4ncccn4)CC3)OCC12 (stereo not drawn)	0	0	4	19	2	i	.	0
COC(=O)c1cc(C(=O)OCC(=O)c2ccc3c(c2)NC(=O)CO3)cc([N+](=O)[O-])c1	-3	-3	.	-24	.	.	-16	.
O=S1(=O)CC(O)C(N2CCCCC2)C1 (stereo not drawn)	1	1	-3	.	-5	i	-14	8
CCN(CC(=O)Nc1c(F)cccc1F)C(=O)CCOc1ccc(C)cc1	-5	-2	.	-12	.	i	5	-4
Cc1cc(C)n2nc(/C(C#N)=C/c3ccccc3)c(C#N)c2n1	-5	0	-6	-142	2	.	-15	.
Cc1cccc2cc(CN(Cc3cccnc3)C(=S)NCCCN(C)C)c(=O)[nH]c12	-5	-3	-7	2	-9	i	-17	-5
CCC(=O)N1CCc2cc(Br)cc(S(=O)(=O)N3CCC(C(=O)NCCCOC(C)C)CC3)c21	7	-3	11	-2	16	.	11	-12
COC(=O)CSc1nnc(CNC(=O)c2ccc(S(=O)(=O)N3CCCCC3)cc2)n1C	11	1	4	-15	6	.	-11	-13
COc1ccc(Nc2ncccc2C(=O)NCc2ccccc2)cc1	5	-1	5	.	-1	i	-6	-4
CC(C)Cc1nnc(NS(=O)(=O)c2ccc(Cl)cc2)s1	1	3	-7	-20	6	i	0	-3
COc1ccc(NC(=S)NNc2ccc(S(=O)(=O)Nc3ccccc3C(=O)O)cc2[N+](=O)[O-])cc1	10	-1	-2	15	14	i	.	21
Continuation:
SMILES	MT1-MMP act inh	MT1-MMP act inh RFP	eIF4H FP inh	Env fusion inh	PABP FP inh	Rce1 inh	Yeast UUG start	CSC inhib
O=C(Nn1c(-c2ccncc2)nc2ccccc2c1=O)c1ccc(Br)cc1	3	-7	1	10	-8	i	.	-7
CC(OC(=O)Cn1[nH]c(=O)c2ccccc2c1=O)C(=O)Nc1ccc(Cl)cn1 (stereo not drawn)	-3	0	.	8	.	.	-7	4
Cc1cccc(Nc2nc(-c3ccccc3)c(C(=O)Nc3cccnc3)s2)c1	-2	-7	-7	14	-3	i	.	63
CC(C)OCCCNC(=O)C(NC(=O)c1ccc(Cl)cc1)C(C)C (stereo not drawn)	-2	-4	1	-9	-6	i	.	.
CN(C)/C=C/C(=O)c1ccc(Cl)s1	-17	2	-6	-10	1	i	.	-3
Cc1nnc(SCC(=O)N2CCCCC2)s1	1	6	12	-88	4	i	-27	-17
CCOc1cccc(/C(O)=C2/C(=O)C(=O)N(CCOC)C2c2ccc(C)o2)c1 (stereo not drawn)	3	-2	11	.	6	i	-14	-1
CCCCOc1ccc(-c2nnc(N)s2)cc1	4	3	3	-1	9	i	.	13
CCCCNC(=O)N(O)C1N(CCCC)C(=O)N(CC(=O)OC)C1(C)C (stereo not drawn)	0	-1	5	.	-8	.	-11	-12
Cc1ccccc1-n1ncc2c1CC(C)(C)CC2NC(=O)CCN1Cc2ccccc2C1=O (stereo not drawn)	-2	-2	-12	-5	9	i	12	6
COc1ccc(N2CCN(CC(=O)Nc3ccc(SC(F)F)cc3)CC2)cc1	1	-3	-1	12	18	i	.	-7
CCOC(=O)C1CCCN(C(=O)c2cc(Cl)ccc2NC(=O)C2=C(C)OCCS2)C1 (stereo not drawn)	-5	0	4	7	0	i	-17	-12
Cc1noc(NS(=O)(=O)c2ccc(NC(=O)C34CCC(CC3)C4)cc2)c1C	-1	5	-3	.	14	i	-6	3
C=CCSC1=C(C#N)C(c2ccc(C(C)C)cc2)CC(=O)N1 (stereo not drawn)	2	0	-10	-15	1	i	-6	6
Cc1cc(-c2ccc(/C=N/n3cnnc3)o2)c([N+](=O)[O-])cc1C	0	1	5	-15	3	i	-8	-24
Cc1c(C(=O)NCCC2=CCCCC2)oc2ccc(S(=O)(=O)N3CCOCC3)cc12	-7	-9	-5	-9	-8	.	-8	16

Some of these compounds in order of length of the SMILES, smallest number first.
SMILES	MT1-MMP act inh	MT1-MMP act inh RFP	eIF4H FP inh	Env fusion inh	PABP FP inh	Rce1 inh	Yeast UUG start	CSC inhib
CN(C)/C=C/C(=O)c1ccc(Cl)s1	-17	2	-6	-10	1	i	.	-3
Cc1ccccc1-n1ncc2c1CC(C)(C)CC2NC(=O)CCN1Cc2ccccc2C1=O (stereo not drawn)	-2	-2	-12	-5	9	i	12	6
CCOC(=O)C1CCCN(C(=O)c2cc(Cl)ccc2NC(=O)C2=C(C)OCCS2)C1 (stereo not drawn)	-5	0	4	7	0	i	-17	-12
